FGF22 binding: binders of human FGF22 protein, primary screen, FGF22 synaptogenesis inhibitor project, biophysical, thermal shift, single point | recombinant FGF22 thermal shift, SYPRO orange fluorescence; percent of sucrose octasulfate shift, DMSO zero | calls only at 9.99 µM | actives 1.5% (n = 340,000);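 active = melting point raised past a set limit in the mean and every replicate; three in four hits are not shown here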
Target sequence (Q9HCT0 whole entry, looked up): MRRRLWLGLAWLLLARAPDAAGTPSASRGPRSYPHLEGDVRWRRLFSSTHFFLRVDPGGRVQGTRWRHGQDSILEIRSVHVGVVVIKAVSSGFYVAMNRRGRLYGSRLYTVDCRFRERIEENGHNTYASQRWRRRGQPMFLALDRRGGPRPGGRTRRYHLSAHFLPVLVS
Calls only; i = inactive.

item	smiles	FGF22 binding
1	COc1ccc(NC(=O)Nc2ccc3c(c2)C(=O)N([C@H](C)CO)C[C@H](C)[C@@H](CN(C)C(=O)Nc2ccc4c(c2)OCO4)OCCCC[C@@H](C)O3)cc1	i
2	O=C(NC[C@@H]1N[C@@H](CO)[C@H]1c1ccc(C2=CCCC2)cc1)c1ccccc1	i
3	COc1cccc(S(=O)(=O)N(C)C[C@@H]2Oc3ncc(-c4ccc(F)cc4)cc3C(=O)N([C@H](C)CO)C[C@@H]2C)c1	i
4	COc1ccccc1CNC(=O)C[C@H]1C[C@@H]2c3cc(NC(=O)C4CCOCC4)ccc3O[C@@H]2[C@H](CO)O1	i
5	C[C@@H]1CN([C@@H](C)CO)C(=O)c2cccc(NC(=O)Nc3cccc4ccccc34)c2O[C@H]1CN(C)C(=O)Nc1ccc2c(c1)OCO2	i
6	COc1ccc(CN(C)C[C@@H]2OCCCC[C@H](C)Oc3ccc(NC(=O)Nc4ccc5c(c4)OCO5)cc3C(=O)N([C@@H](C)CO)C[C@H]2C)cc1	i
7	O=C(C[C@H]1CC[C@H]2[C@@H](COC[C@H](O)CN2C(=O)c2ccccc2)O1)N1CCOCC1	i
8	C#CCN1C(=O)[C@]2(OC[C@@H]3Cc4ccccc4[C@@H]3C=C2C)c2ccccc21	i
9	C[C@@H]1CCCCO[C@@H](CN(C)Cc2ccc3c(c2)OCO3)[C@H](C)CN([C@@H](C)CO)C(=O)c2cc(NS(C)(=O)=O)ccc2O1	i
10	CCCNC(=O)N(C)C[C@H]1Oc2cc(C#C[C@H](C)O)ccc2S(=O)(=O)N([C@H](C)CO)C[C@H]1C	i
11	C[C@H]1CN([C@@H](C)CO)C(=O)Cc2cc(NS(C)(=O)=O)ccc2O[C@@H]1CN(C)S(=O)(=O)c1ccc(Cl)cc1	i
12	C[C@H](CO)N1C[C@H](C)[C@H](CN(C)C(=O)Nc2ccc(-c3ccccc3)cc2)OCc2ccccc2-c2ccccc2C1=O	i
13	C[C@@H]1CN([C@H](C)CO)S(=O)(=O)c2ccc(C#Cc3ccc(F)cc3)cc2O[C@H]1CN(C)C(=O)NC1CCCC1	i
14	COc1ccc([Si](C)(C)[C@H]2[C@H](CCO)O[C@@]3(C(=O)N(Cc4ccccc4)c4ccc(N5CCCCC5=O)cc43)[C@@H]2C)cc1	i
15	COc1ccc(NC(=O)N(C)C[C@@H]2Oc3ccc(NC(=O)Cc4cn(C)c5ccccc45)cc3C(=O)N([C@H](C)CO)C[C@@H]2C)cc1	i
16	CC(C)NC(=O)N(C)C[C@H]1Oc2ccc(NC(=O)CCCCCC(=O)Nc3ccccc3N)cc2C(=O)N([C@@H](C)CO)C[C@H]1C	i
17	COc1ccc(CN(C)C[C@H]2Oc3ccc(NC(=O)NC4CCCCC4)cc3CC(=O)N([C@@H](C)CO)C[C@H]2C)cc1	i
18	CO[C@@H]1CN(C)C(=O)c2cc(NC(=O)C3CC3)ccc2OC[C@H](C)N(CC2CCOCC2)C[C@@H]1C	i
19	C[C@@H]1CN([C@H](C)CO)C(=O)c2cccc(N(C)C)c2O[C@H]1CN(C)S(=O)(=O)c1ccccc1	i
20	C[C@H](CO)N1C[C@H](C)[C@H](CN(C)S(=O)(=O)c2ccccc2)Oc2ccc(NC(=O)C3CCCCC3)cc2C1=O	i
21	CCCN1C[C@@H](C)[C@H](OC)CN(C)C(=O)c2ccc(NC(=O)Nc3ccccc3F)cc2OC[C@@H]1C	i
22	COc1ccc(CN(C)C[C@@H]2Oc3ccc(NS(=O)(=O)c4cccs4)cc3C(=O)N([C@@H](C)CO)C[C@@H]2C)cc1	i
23	CC(C)NC(=O)Nc1ccc2c(c1)C(=O)N(C)[C@H]1CC[C@@H](CC(=O)Nc3ccccc3)O[C@@H]1CO2	i
24	C=CCNC(=O)[C@@H]1[C@H]2C(=O)O[C@H](c3ccccc3)[C@H](c3ccccc3)N2[C@H](c2ccc(O)cc2)[C@@]12C(=O)Nc1ccc(C#CCC(C(=O)OC)C(=O)OC)cc12	i
25	CCCN1[C@@H]2c3ccc(-c4ccccc4)c(=O)n3C[C@H]1[C@H](CO)[C@H]2C(=O)N1CCCCC1	i
26	C[C@@H]1CCCCO[C@H](CN(C)Cc2ccc(Cl)c(Cl)c2)[C@@H](C)CN([C@H](C)CO)C(=O)c2cc(NC(=O)CCCCCC(=O)Nc3ccccc3N)ccc2O1	i
27	CN1CCN(C(=O)[C@@H]2[C@@H](CO)[C@@H]3Cn4c(ccc(C5=CCCC5)c4=O)[C@@H]3N2Cc2nccs2)CC1	i
28	O=C(Nc1ccc(F)cc1)N1CCCCN2[C@H](C1)[C@@H](c1ccc(C#Cc3ccccc3)cc1)[C@@H]2CO	i
29	O=C(C[C@H]1C=C[C@H](NC(=O)Nc2ccc(C(F)(F)F)cc2)[C@@H](CO)O1)NCc1cc(F)cc(F)c1	i
30	C[C@H](CO)N1C[C@H](C)[C@H](CN(C)C(=O)CC2CC2)Oc2cc(C3=CCCC3)ccc2S1(=O)=O	i
31	C/C=C/c1cnc2c(c1)C(=O)N([C@@H](C)CO)C[C@H](C)[C@@H](CN(C)C(=O)Cc1ccccc1)O2	i
32	CC(=O)N1[C@@H](CO)[C@@H](c2ccccc2)C12CN(S(=O)(=O)c1ccccc1)C2	i
33	Cc1ccc(S(=O)(=O)Nc2cccc3c2O[C@H](CN(C)CC2CC2)[C@@H](C)CN([C@H](C)CO)C3=O)cc1	i
34	C[C@@H]1CCCCO[C@@H](CN(C)Cc2ccc(C(F)(F)F)cc2)[C@@H](C)CN([C@@H](C)CO)C(=O)c2cc(NC(=O)c3ccccc3)ccc2O1	i
35	C[C@@H]1CCCCO[C@@H](CN(C)C(=O)Cc2ccccc2)[C@H](C)CN([C@@H](C)CO)C(=O)c2cc(NC(=O)Nc3ccc(C(F)(F)F)cc3)ccc2O1	i
36	CNC[C@@H]1Oc2c(NC(=O)c3cc(C)nn3C)cccc2C(=O)N([C@H](C)CO)C[C@@H]1C	i

Rewritten with values ahead of the structure: entries from further up
cpd	FGF22 binding	compound
17	i	COc1ccc(CN(C)C[C@H]2Oc3ccc(NC(=O)NC4CCCCC4)cc3CC(=O)N([C@@H](C)CO)C[C@H]2C)cc1
18	i	CO[C@@H]1CN(C)C(=O)c2cc(NC(=O)C3CC3)ccc2OC[C@H](C)N(CC2CCOCC2)C[C@@H]1C

Later entries:
item	smiles	FGF22 binding
37	COc1ccc(N2C(=O)c3n[nH]c(C(C)C)c3C2c2ccc(C)cc2)cc1 (stereo not drawn)	i
38	COC(=O)C[C@H]1CC[C@@H]2[C@H](COc3ccc(NC(=O)c4cscn4)cc3C(=O)N2C)O1	i
39	CCS(=O)(=O)N1CCCCN2[C@@H](CO)[C@H](c3ccc(C#Cc4ccccc4OC)cc3)[C@@H]2C1	i
40	CO[C@@H]1CN(C)C(=O)c2ccc(NC(=O)C3CC3)cc2OC[C@H](C)N(C)C[C@H]1C	i
41	COC(=O)C1=C(C)N(Cc2cccc(C(F)(F)F)c2)C(=NCc2ccc3c(c2)OCO3)NC1c1ccc(Cl)cc1 (stereo not drawn)	i
42	CCC(=O)Nc1ccc2c(c1)C(=O)N(C)[C@@H]1CC[C@@H](CC(=O)NCc3ccc(OC)cc3)O[C@H]1CO2	i
43	COc1cccc(S(=O)(=O)Nc2ccc3c(c2)C(=O)N(C)[C@@H]2CC[C@@H](CC(=O)NCC4CCCCC4)O[C@H]2CO3)c1	i
44	COc1ccc2c3c(n(C)c2c1)[C@H](CO)N(C(=O)C1CCCC1)CC31CCN(C(=O)CC2CC2)CC1	i
45	O=C(C[C@H]1CC[C@@H]2[C@H](COC[C@@H](O)CN2Cc2ccc3c(c2)OCO3)O1)Nc1ccccc1	i
46	CNC[C@@H]1Oc2ccc(NS(=O)(=O)c3ccccc3)cc2CC(=O)N([C@H](C)CO)C[C@@H]1C	i
47	O=C(C[C@H]1C[C@H]2c3cc(NC(=O)Nc4ccccc4F)ccc3O[C@H]2[C@H](CO)O1)NCc1ccc(Oc2ccccc2)cc1	i
48	C[C@@H]1CN([C@@H](C)CO)C(=O)c2cc(-c3cncnc3)cnc2O[C@H]1CN(C)C(=O)Cc1ccccn1	i
49	COc1cccc(-c2cn(CC[C@H]3CC[C@H](NC(=O)CN(C)C)[C@H](CO)O3)nn2)c1	i
50	C[C@H](CO)N1C[C@H](C)[C@H](CN(C)C(=O)Nc2ccccc2)Oc2ccc(NC(=O)Nc3ccc(C(F)(F)F)cc3)cc2C1=O	i
51	O=C(C[C@H]1CC[C@@H](NS(=O)(=O)c2ccc(F)cc2)[C@@H](CO)O1)NCCc1ccncc1	i
52	COc1ccc(CN(C)C[C@H]2OCCCC[C@H](C)Oc3ccc(NS(=O)(=O)c4c(C)noc4C)cc3C(=O)N([C@H](C)CO)C[C@@H]2C)cc1	i
53	CCCC#Cc1ccc2c(c1)O[C@H](CN(C)Cc1cccnc1)[C@H](C)CN([C@H](C)CO)S2(=O)=O	i
54	O=C(O)C[C@H]1C[C@@H]2c3cc(NC(=O)Nc4ccc(C(F)(F)F)cc4)ccc3O[C@@H]2[C@@H](CO)O1	i
55	C[C@@H]1CN([C@@H](C)CO)C(=O)c2cc(Br)cnc2O[C@@H]1CN(C)Cc1ccc(C(=O)O)cc1	i
56	C[C@H]1CN([C@@H](C)CO)C(=O)c2cc(/C=C/c3ccccc3)cnc2O[C@@H]1CN(C)C(=O)c1ccncc1	i
57	CCCNC(=O)[C@H]1[C@H](CO)[C@H]2Cn3c(ccc(C4=CCCC4)c3=O)[C@H]2N1Cc1ccccc1	i
58	O=C(O)C[C@@H]1C[C@H]2c3cc(NC(=O)CC4CC4)ccc3O[C@H]2[C@@H](CO)O1	i
59	CC(=O)N1CC2(C1)[C@@H](c1ccccc1)[C@@H](CO)N2S(=O)(=O)c1ccccc1	i
60	COc1ccc(NC(=O)Nc2ccc3c(c2)[C@H]2C[C@@H](CC(=O)NC4CCCC4)O[C@@H](CO)[C@H]2O3)cc1	i
61	Cc1ccccc1S(=O)(=O)N1[C@@H](C#N)[C@H](c2ccccc2)[C@@H]1CO	i
62	COc1ccc2c3c(n(C)c2c1)[C@@H](CO)N(C(=O)NC1CCCCC1)CC31CCN(C)CC1	i
63	COc1ccc(NC(=O)N(C)C[C@H]2OCCCC[C@H](C)Oc3ccc(NS(C)(=O)=O)cc3C(=O)N([C@H](C)CO)C[C@@H]2C)cc1	i
64	C[C@H]1CN([C@@H](C)CO)C(=O)c2cc(NC(=O)c3ccncc3)ccc2O[C@H]1CN(C)C	i
65	Cc1ccccc1C(=O)N[C@@H](Cc1cccnc1)C(=O)N1CCC[C@H]1C(=O)NCCc1ccccc1Cl	i
66	CCCC(=O)Nc1ccc2c(c1)OC[C@H](C)N(CC1CCCC1)C[C@H](C)[C@@H](OC)CN(C)C2=O	i
67	Cc1noc(C)c1NC(=O)Nc1cccc2c1O[C@H](CN(C)CC1CCCCC1)[C@@H](C)CN([C@H](C)CO)C2=O	i
68	COc1cccc(S(=O)(=O)N(C)C[C@H]2OCc3ccccc3-c3c(n(C)c4ccccc34)C(=O)N([C@H](C)CO)C[C@@H]2C)c1	i
69	CNC[C@H]1OCCCC[C@H](C)Oc2ccc(NC(=O)Nc3ccc4c(c3)OCO4)cc2C(=O)N([C@H](C)CO)C[C@H]1C	i
70	CN1C(=O)c2cc(NS(=O)(=O)c3cccc(F)c3)ccc2OC[C@H]2O[C@H](CC(=O)O)CC[C@@H]21	i
71	C[C@@H]1CN([C@@H](C)CO)C(=O)c2cc(NS(=O)(=O)c3cccs3)ccc2O[C@@H](C)CCCCO[C@H]1CN(C)C(=O)Cc1ccccc1	i
72	Cc1ccc(S(=O)(=O)N(C)C[C@H]2OCCCC[C@H](C)Oc3ccc(NS(=O)(=O)c4c(C)noc4C)cc3C(=O)N([C@H](C)CO)C[C@@H]2C)cc1	i
73	CCC(=O)N1[C@@H](CO)[C@@H](c2ccccc2)C12CN(Cc1cc(F)ccc1F)C2	i
74	COc1ccc2c3c([nH]c2c1)[C@H](CO)N(Cc1ccc2c(c1)OCO2)CC31CN(C(=O)Nc2c(C)noc2C)C1	i
75	COCc1cn(CC[C@H]2CC[C@H](NC(=O)Nc3c(C)noc3C)[C@H](CO)O2)nn1	i
76	CCCNC(=O)N1CCC2(CC1)CN(C(=O)CC1CC1)[C@@H](CO)c1[nH]c3cc(OC)ccc3c12	i
77	CCC(=O)N(C)C[C@H]1Oc2cc(-c3cccc(C#N)c3)ccc2S(=O)(=O)N([C@@H](C)CO)C[C@@H]1C	i
78	CO[C@H]1CN(C)C(=O)c2cc(NC(=O)Nc3ccccc3F)ccc2OC[C@H](C)N(CC2CC2)C[C@H]1C	i
79	COc1ccc2c3c(n(C)c2c1)[C@H](CO)N(Cc1ccncc1)CC31CN(C(=O)NC(C)C)C1	i
80	C/C=C/c1ccc2c(c1)O[C@@H](CN(C)C(=O)c1ccccc1F)[C@@H](C)CN([C@@H](C)CO)S2(=O)=O	i
81	COc1ccc(C#Cc2ccc([C@H]3[C@H](CO)N4CCCCN(C)C[C@@H]34)cc2)cc1	i
82	COc1cccc(CNC(=O)C[C@@H]2C=C[C@H](NC(=O)C3CC3)[C@@H](CO)O2)c1	i

Entries 77 through 82, reprinted for reference:
item	smiles	FGF22 binding
77	CCC(=O)N(C)C[C@H]1Oc2cc(-c3cccc(C#N)c3)ccc2S(=O)(=O)N([C@@H](C)CO)C[C@@H]1C	i
78	CO[C@H]1CN(C)C(=O)c2cc(NC(=O)Nc3ccccc3F)ccc2OC[C@H](C)N(CC2CC2)C[C@H]1C	i
79	COc1ccc2c3c(n(C)c2c1)[C@H](CO)N(Cc1ccncc1)CC31CN(C(=O)NC(C)C)C1	i
80	C/C=C/c1ccc2c(c1)O[C@@H](CN(C)C(=O)c1ccccc1F)[C@@H](C)CN([C@@H](C)CO)S2(=O)=O	i
81	COc1ccc(C#Cc2ccc([C@H]3[C@H](CO)N4CCCCN(C)C[C@@H]34)cc2)cc1	i
82	COc1cccc(CNC(=O)C[C@@H]2C=C[C@H](NC(=O)C3CC3)[C@@H](CO)O2)c1	i

Assay outcomes deposited in PubChem by Broad Institute.

An excerpt; the hit share may differ from the screen's.
